GALR2 ag – GALR2 (human) receptor agonism | GALR2-expressing cells, agonist activation read-out | activation, %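 (tested at 5 µM)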 | AID 803 | 140,000 compounds, 0.48% hits | O43603;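 active = above mean plus 3 SD of all compounds, about 5% in these data, not always enough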;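 also: 0% = vehicle buffer wells and 100% = reference agonist at full effect; tested in CHO reporter cells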
Target sequence (O43603 whole entry, looked up): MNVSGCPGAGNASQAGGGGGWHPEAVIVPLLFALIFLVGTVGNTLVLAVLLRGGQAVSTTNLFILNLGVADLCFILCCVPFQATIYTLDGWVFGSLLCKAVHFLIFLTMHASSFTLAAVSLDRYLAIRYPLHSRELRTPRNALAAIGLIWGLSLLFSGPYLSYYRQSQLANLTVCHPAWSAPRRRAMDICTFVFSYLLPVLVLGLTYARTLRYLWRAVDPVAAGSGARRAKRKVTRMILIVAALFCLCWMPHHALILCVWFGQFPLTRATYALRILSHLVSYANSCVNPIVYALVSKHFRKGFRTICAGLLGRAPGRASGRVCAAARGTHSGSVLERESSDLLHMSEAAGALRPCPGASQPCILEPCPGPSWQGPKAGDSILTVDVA
RGS16-Gao HTS – regulators of human RGS16-Galphao interaction. O15492+P09471. 220,000 compounds, 0.38% hits. binding response (% of control), % at 10 µM. AID 1441. bead-based flow cytometry RGS16-Galphao binding, fluorescence; actives lie on both sides;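 active = below 25% or above 175%, edge rows of some plates excepted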;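 also: Galphao activated by GDP with aluminum fluoride before binding; 100% = wells without compound and 0% = beads without RGS; some results beyond the cut were filed as inactive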
Target sequence (O15492 whole entry, looked up): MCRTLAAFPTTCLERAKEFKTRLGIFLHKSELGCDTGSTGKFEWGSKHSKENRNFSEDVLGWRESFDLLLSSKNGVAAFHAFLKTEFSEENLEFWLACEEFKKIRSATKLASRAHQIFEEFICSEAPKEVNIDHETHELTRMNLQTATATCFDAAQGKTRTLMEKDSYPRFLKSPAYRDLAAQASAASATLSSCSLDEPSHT
Target sequence (P09471 whole entry, looked up): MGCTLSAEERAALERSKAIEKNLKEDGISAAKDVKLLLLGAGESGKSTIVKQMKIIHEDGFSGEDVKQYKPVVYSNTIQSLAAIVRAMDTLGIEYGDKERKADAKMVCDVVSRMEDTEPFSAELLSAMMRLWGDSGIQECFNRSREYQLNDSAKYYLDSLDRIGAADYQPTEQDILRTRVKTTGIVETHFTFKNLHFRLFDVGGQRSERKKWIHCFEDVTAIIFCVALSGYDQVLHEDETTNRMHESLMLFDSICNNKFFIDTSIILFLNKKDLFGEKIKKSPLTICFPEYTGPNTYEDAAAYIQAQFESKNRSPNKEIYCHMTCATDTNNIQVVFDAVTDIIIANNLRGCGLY
HSV replic up – increases HSV replication in cells | HSV replication augmentation in cells, fold increase | maximum fold increase | 220,000 compounds, 0.005% hits;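 active = peak rise of 1.5-fold or more in the series; inconclusive = self-fluorescent or not available for retest; tested in PC3 cells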;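 also: first round at 10 µM; read as green reporter fluorescence; hits show the peak of a series up to 25 µM; 1 = signal of infected wells without compound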
PKD1 inh – PKD1 (human) kinase inhibition | 200,000 compounds, 0.056% hits | inhibition, %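 (about 10 µM by stock and volumes)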 | PKD1 kinase fluorescence polarization assay | Q15139;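 active = inhibition of 50% or more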;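 also: controls were vehicle for no effect and a reference inhibitor for full effect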
INS promoter inh – TRM-6 insulin promoter activity inhibition; TRM-6 cells (human fetal islet line), insulin promoter-eGFP reporter, imaging; reporter expression induced with tamoxifen; inhibition, % at 2 µM; 130,000 compounds, 0.9% hits;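 active = inhibition above the mean plus 3 SD, with well images judged a real hit on visual review, cut at about 60% in these data, passing the limit was not always enough; inconclusive = inhibition over the cutoff but images rejected on review; inactive = inhibition not above the cutoff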
INS promoter inh cell count – also measured in INS promoter inh; calls as there; normalized cell count, %; measured here: cell count, toxicity; reference of the scale not given here;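 cells exposed to compound for 48 h; stained nuclei by imaging scaled within each plate; lower means fewer cells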
HSV replic up primary fold – second read-out of HSV replic up, no call of its own (marks repeat the call); fold increase; compound at 10 µM; measured here: primary screen fold increase 10 uM; tested in PC3 cells;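 GFP signal in the first replicate; 1 = infected wells without compound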
Active calls of the source: *; i = inactive; ? = inconclusive; / = not tested or not shown.

Order of results: HSV replic up primary fold	INS promoter inh cell count	RGS16-Gao HTS	INS promoter inh	PKD1 inh	GALR2 ag	HSV replic up
- COc1ccc(C(=O)C/C(=C\C(=O)c2ccc(C)cc2)c2ccccc2)cc1
→ 0.96	/	90	/	6	-1.9	i
- COc1ccc(C(C)C)cc1S(=O)(=O)Nc1ccc(Cl)cn1
→ 0.99	93	98	44	16	-2.3	i
- Cc1ccc(C(c2c(C)nn(-c3ccccc3)c2N)c2c(C)nn(-c3ccccc3)c2N)cc1
→ 0.91	69	104	-32	-13	-0.9	i
- O=C(O)C(=O)/C(=C\c1ccccc1)c1ccc2ccccc2n1
→ 1	50	103	51	-11	-0.2	i
- CCC(C)C(NC(N)=O)C(=O)Nc1ccc(C(=O)OC)cc1 (configuration not stated)
→ 0.91	/	95	/	-5	/	i
- COc1cccc(CNCc2ccc(C(=O)O)cc2)c1OC
→ 1.1	145	104	2	-3	/	i
- O=C(OCC(=O)N1CCCCC1)c1c[nH]c(=O)[nH]c1=O
→ 0.98	96	100	0	-11	-1.0	i
- CCOC(=O)Cc1nnc(Nc2ccc(C)cc2C)c2ccccc12
→ 0.84	122	108	-26	-12	-1.1	i
- CC(C)C12CN3CC(C(C)C)(CN(C1)C3c1ccccc1)C2O (configuration not stated)
→ 1.1	128	110	9	-5	-2.0	i
- Cc1ccc(C(=O)N/C(=C/c2ccc(F)cc2)C(=O)NCc2ccncc2)cc1
→ 0.96	87	101	57	-7	1.6	i
- CCOC(=O)c1ccc(NC(=S)N(CCCN2CCCC2)Cc2cccs2)cc1
→ 0.89	/	97	/	-1	/	i
- COc1ccc(Cl)cc1NC(=O)CCCN1C(=O)CCC1=O
→ 0.92	81	103	43	-7	-0.4	i
- Cc1cc(C(=O)CN2C(=O)C(=O)N(CC(C)C)C2=O)c(C)n1-c1ccccc1F
→ 1.1	/	104	/	1	/	i
- O=C(COCc1nc2ccccc2c(=O)[nH]1)NCC1CCCCC1
→ 1	67	101	-486	-2	-2.0	i
- COc1ccccc1NC(=O)Nc1cc(NC(=O)Nc2ccccc2OC)c(C)nc1C
→ 0.87	57	66	25	1	-0.2	i
- Cc1cccc(OCCSCc2nc3ccccc3[nH]2)c1
→ 1	/	99	/	0	-2.0	i
- Cc1cc(C)c(OCCCON2C(=O)CCC2=O)c(Br)c1
→ 0.92	/	100	/	-12	/	i
- C=C(C)c1cccc(C(C)(C)NC(=O)Nc2ncccn2)c1
→ 1.1	154	103	3	-15	-3.8	i
- CCCN1C(=O)c2cc(C(=O)Nc3cccc(C(C)=O)c3)ccc2C1Nc1cccc(C(C)=O)c1 (configuration not stated)
→ 0.98	/	77	/	/	/	i
- O=C(N/N=C/c1c(O)n(-c2ccc(Cl)cn2)c(=O)c2ccccc12)c1ccncc1
→ /	82	134	-17	1	-1.1	?
- CCCn1c(SCC(=O)NNC(=O)c2ccccc2)nnc1-c1cccnc1
→ 0.88	/	103	/	/	/	i
- Cc1ccccc1Cn1c(=O)n(CCC(=O)NCc2ccc3c(c2)OCO3)c(=O)c2ccccc21
→ 0.94	59	113	-19	1	-2.5	i
- N#C/C(=C(\O)CCl)c1nnc2n1CCCCC2
→ 0.98	105	105	-14	-3	-0.4	i
- O=C(Nc1cccc(Cl)c1)/C(=C\c1cccnc1)NC(=O)c1ccco1
→ 0.82	114*	101	67*	-1	/	i
- COc1ccc(-c2nc3cnccn3c2Nc2ccc(C)cc2)cc1
→ 1	/	106	/	11	-1.9	i
- Cc1ccnc2nc(C(=O)OCC(=O)N(CC(C)C)CC(C)C)nn12
→ 0.95	/	99	/	-1	/	i
- COC(=O)[C@H](C)NC(=O)Nc1ccc(C)c(C)c1
→ 1.1	/	109	/	2	-0.8	i
- CSc1nc2ncc(-c3ccsc3)c(N)n2n1
→ 0.98	143	104	64	3	/	i
- Cc1cccc(N2C(=O)C3C4CC(=O)C(c5ccccc54)C3C2=O)c1C (configuration not stated)
→ 0.99	79	104	-32	-7	/	i
- COc1ccc(-c2cc(C(=O)Nc3cc(OC)cc(C(=O)Nc4cccc(C(F)(F)F)c4)c3)[nH]n2)cc1
→ 0.77	/	94	/	/	/	i
- c1ccc2nc(-c3nc4ccccc4[nH]3)ccc2c1
→ 1	74	97	32	2	-0.4	i
- c1ccc(C2=Nn3c(nnc3-c3n[nH]c4c3CCC4)SC2)cc1
→ 0.9	/	106	/	2	-1.5	i
- Cc1ccc(S(=O)(=O)NCc2ccc(/C=C(/C#N)C(=O)NCc3ccccc3)o2)cc1
→ 0.89	90	82	-30	-5	-0.1	i
- COc1ccc2cc(C(=O)C3CCCN(C(=O)CCc4cnn(C)c4)C3)ccc2c1 (configuration not stated)
→ 1.1	/	105	/	10	/	i
- O=C(CNC1CCCCCC1)Nc1ccccc1N1CCOCC1
→ 0.95	/	105	/	-6	/	i
- O=C(O)c1cc(/C=N\O)ccc1OCc1ccccc1
→ 0.91	114	80	-2	-11	-2.4	i
- CN(C)c1ccc(/C=C(\C#N)C(=O)c2ccccc2)cc1
→ 1	/	108	/	/	/	i
- CCc1oc(C(=O)O)cc1CN(CC)CC
→ 0.81	76	105	25	7	-1.8	i
- Cc1nnc(SCC(=O)NCc2ccco2)n1-c1ccccc1
→ 0.82	75	101	62	3	-2.6	i
- CC(C)c1ccc(-c2nc(N3CCCCCC3)nc3n[nH]c(N)c23)cc1
→ 0.99	72	89	-42	-11	-3.0	i
- CC(C)N(C(=O)CN(C#N)c1nc(N(C)C)nc(N(C)C)n1)c1ccccc1
→ 0.8	71	101	-81	-6	-0.6	i
- COc1ccc(/C=C/C(=O)NCC(=O)N/N=C/c2ccc(OC)cc2)cc1
→ 0.99	88	104	0	-1	/	i
- Clc1ccc(Cn2ncc3c(N4CCCCC4)ncnc32)cc1
→ 1.1	84	95	-50	0	-1.1	i
- COc1ccc(OC)c(C2C(C(C)=O)=C(O)C(=O)N2c2ccc(O)cc2)c1 (configuration not stated)
→ 0.9	150	97	3	-5	-2.7	i
- COc1ccc(C2OC3=C(Nc4cc(C)c(C)cc4N3)C2=O)cc1 (configuration not stated)
→ 0.9	/	102	/	/	/	i
- Cn1c(NCCO)nc2c(c1=O)C1(CCCCC1)Cc1ccccc1-2
→ 0.75	/	70	/	-3	-2.1	i
- CC(C)Nc1nc(NC(N)=S)nc(NC(C)C)n1
→ 0.93	112	103	48	0	-1.7	i
- CCOC(=O)NC(=O)CSc1nnnn1-c1ccc(Cl)cc1
→ 0.98	130	101	67	-3	-0.9	i
- Cc1cc(C)c(-c2cc(NC(=O)COC(=O)c3ccc(C#N)cc3)n(-c3ccccc3)n2)cc1C
→ 0.91	/	100	/	-13	-0.6	i
- Cc1cccc(NC(=O)CN2C(=O)S/C(=C\C(=O)Nc3ccc(Cl)cc3)C2=O)c1
→ 0.92	75	110	12	-3	-0.7	i
- COc1ccc(C(CC(=O)O)NC(=O)Cc2ccccc2)cc1 (configuration not stated)
→ 0.9	/	100	/	-7	-2.5	i
- O=C(O)/C(=C\C(=O)c1ccccc1)Nc1ccccc1
→ 1.4	/	104	/	/	/	i
- O=C(N/C(=C\c1cccnc1)C(=O)N1CCOCC1)c1ccco1
→ 0.99	/	105	/	1	/	i
- CCN=C1S/C(=C\c2cc(Br)ccc2OCC(=O)OCC)C(=O)N1CC
→ 0.78	91	104	-4	1	-1.6	i
- C/C=C(\C)C(=O)N1CC2(CC(c3cccc(NC(=O)CC(c4ccccc4)c4ccccc4)c3)=NO2)C[C@H]1C(N)=O (some centres not stated)
→ 0.92	/	100	/	/	/	i
- O=S(=O)(c1ccc(F)cc1)n1ccc(-c2cccc(OCc3ccc(Cl)cc3Cl)c2)n1
→ 0.9	102	103	-38	9	-0.6	i
- O=S(=O)(c1cccs1)N1CCc2ccccc2C1
→ 0.95	/	99	/	-9	-3.1	i
- OC(COCc1ccccc1)CN1CCc2ccccc2C1 (configuration not stated)
→ 0.99	70	100	-44	2	-1.8	i
- Cc1cccc(N(C(=O)CCC(=O)Nc2nccs2)C(C(=O)NC(C)(C)C)c2ccc(O)cc2)c1 (configuration not stated)
→ 0.77	/	100	/	-10	/	i
- CCn1c(SCc2ccc(C(=O)OC)o2)nc2sc3c(c2c1=O)CCCC3
→ 0.79	107	110	27	-8	-1.1	i

Quoted from the listing.
`Cc1cc(C(=O)CN2C(=O)C(=O)N(CC(C)C)C2=O)c(C)n1-c1ccccc1F` in HSV replic up primary fold shows 1.1
`Cc1ccccc1Cn1c(=O)n(CCC(=O)NCc2ccc3c(c2)OCO3)c(=O)c2ccccc21` in RGS16-Gao HTS shows 113

Continuation:
Order of results: HSV replic up primary fold	INS promoter inh cell count	RGS16-Gao HTS	INS promoter inh	PKD1 inh	GALR2 ag	HSV replic up
- CC1Cn2c(nc3sc4c(c3c2=O)CCC4)N1CCO (configuration not stated)
→ 1	123	100	33	-6	-0.2	i
- O=C(CN1C(=O)CSc2ccc(C(F)(F)F)cc21)Nc1ccccc1
→ 1.1	/	98	/	/	/	i
- COC(=O)CSc1[nH]c2ccc(F)cc2c1[N+](=O)[O-]
→ 0.96	/	95	/	/	/	i
- CC(C)C(=O)N1CCN(c2ccccc2NC(=O)c2cccc(Cl)c2)CC1
→ 1	76	100	67	-1	-1.6	i
- Cc1ccc(S(=O)(=O)c2ccc(Cl)cc2)cc1S(=O)(=O)N1CCN(C)CC1
→ 0.93	110	439	3	2	0.6	i
- CCC(C)(C)n1nnnc1C(C(C)C)N1CCN(C)CC1 (configuration not stated)
→ 1.1	/	110	/	0	-2.1	i
- COc1ccccc1NC(=O)CSC1CC(=O)N(c2ccc3c(c2)OCO3)C1=O (configuration not stated)
→ 0.9	78	102	15	4	-0.8	i
- FC(F)(F)c1ccnc(Oc2ccc(C3=NCCS3)cc2)c1
→ 1.1	/	100	/	/	/	i
- CCC(CC)C(=O)NCCc1ccc(F)cc1
→ 1.1	69	98	-42	-4	0.2	i
- O=C(Cc1ccc([N+](=O)[O-])cc1)Nc1cccc(C(F)(F)F)c1
→ 0.87	/	101	/	-8	-2.0	i
- Cc1ccc(COc2ccc(/C=N/O)cc2)cc1
→ 1	139	111	0	-3	0.6	i
- O=C(NCCCCO)c1ccc2c3c(cccc13)CC2
→ 0.91	/	91	/	2	/	i
- O=C(CCn1ccnc1)Nc1ccc2ccccc2c1
→ 0.99	/	104	/	0	/	i
- Cc1ccc(NC(=O)CCC(=O)OCC(=O)c2ccc(Oc3ccc([N+](=O)[O-])cc3)cc2)cc1
→ 0.87	118	102	-7	-7	-0.3	i
- O=[N+]([O-])c1ccc(/C=N/NS(=O)(=O)c2ccc(Cl)cc2)o1
→ 0.95	115	104	53	-31	-1.2	i

Limited to INS promoter inh, PKD1 inh and HSV replic up primary fold, for some of the entries so far:
SMILES	INS promoter inh	PKD1 inh	HSV replic up primary fold
COC(=O)CSc1[nH]c2ccc(F)cc2c1[N+](=O)[O-]	/	/	0.96
Cc1ccc(COc2ccc(/C=N/O)cc2)cc1	0	-3	1

Other records follow.
Order of results: HSV replic up primary fold	INS promoter inh cell count	RGS16-Gao HTS	INS promoter inh	PKD1 inh	GALR2 ag	HSV replic up
- CC(=O)Nc1sc(N/N=C\c2ccco2)nc1-c1cccs1
→ 1.1	115	97	-15	6	-0.7	i
- CC(C)(C)C1CCc2onc(C(=O)NCc3ccc(F)cc3)c2C1 (configuration not stated)
→ /	/	94	/	4	-3.1	/
- Cc1ccc(S(=O)(=O)c2c(C)cc(C)nc2Oc2cccc(C)c2C)cc1
→ 0.93	123	103	35	-5	-0.2	i
- CCOc1ccccc1NC(=O)N1CCCC(c2nc(-c3ccc(C)o3)no2)C1 (configuration not stated)
→ 0.94	134	100	-36	-2	/	i
- O=C(Cc1cccs1)NCCN1CCOCC1
→ 1.2	72	112	20	0	1.4	i
- Brc1ccc(-c2nnc(-c3ccco3)o2)cc1
→ /	136	106	-21	8	-2.0	/

5 compounds picked at random from those above, as already listed:
Order of results: HSV replic up primary fold	INS promoter inh cell count	RGS16-Gao HTS	INS promoter inh	PKD1 inh	GALR2 ag	HSV replic up
- COc1ccc(Cl)cc1NC(=O)CCCN1C(=O)CCC1=O
→ 0.92	81	103	43	-7	-0.4	i
- CCOC(=O)c1ccc(NC(=S)N(CCCN2CCCC2)Cc2cccs2)cc1
→ 0.89	/	97	/	-1	/	i
- CCN=C1S/C(=C\c2cc(Br)ccc2OCC(=O)OCC)C(=O)N1CC
→ 0.78	91	104	-4	1	-1.6	i
- COC(=O)CSc1[nH]c2ccc(F)cc2c1[N+](=O)[O-]
→ 0.96	/	95	/	/	/	i
- Cc1nnc(SCC(=O)NCc2ccco2)n1-c1ccccc1
→ 0.82	75	101	62	3	-2.6	i
